TRPV1 PAM = enhances activation of the human vanilloid receptor TRPV1; 320,000 compounds, 0.02% hits; Q8NER1; potentiation, % at 8.33 µM; TRPV1-expressing cells, Fluo-8 calcium influx, capsaicin EC20 potentiation; host cell line not named in the record; control for the full effect not named in the record; active means potentiation above 80%; inconclusive means 30% to 80%; inactive means below 30%; note: 0% is about no effect
Target sequence (Q8NER1 whole entry, looked up): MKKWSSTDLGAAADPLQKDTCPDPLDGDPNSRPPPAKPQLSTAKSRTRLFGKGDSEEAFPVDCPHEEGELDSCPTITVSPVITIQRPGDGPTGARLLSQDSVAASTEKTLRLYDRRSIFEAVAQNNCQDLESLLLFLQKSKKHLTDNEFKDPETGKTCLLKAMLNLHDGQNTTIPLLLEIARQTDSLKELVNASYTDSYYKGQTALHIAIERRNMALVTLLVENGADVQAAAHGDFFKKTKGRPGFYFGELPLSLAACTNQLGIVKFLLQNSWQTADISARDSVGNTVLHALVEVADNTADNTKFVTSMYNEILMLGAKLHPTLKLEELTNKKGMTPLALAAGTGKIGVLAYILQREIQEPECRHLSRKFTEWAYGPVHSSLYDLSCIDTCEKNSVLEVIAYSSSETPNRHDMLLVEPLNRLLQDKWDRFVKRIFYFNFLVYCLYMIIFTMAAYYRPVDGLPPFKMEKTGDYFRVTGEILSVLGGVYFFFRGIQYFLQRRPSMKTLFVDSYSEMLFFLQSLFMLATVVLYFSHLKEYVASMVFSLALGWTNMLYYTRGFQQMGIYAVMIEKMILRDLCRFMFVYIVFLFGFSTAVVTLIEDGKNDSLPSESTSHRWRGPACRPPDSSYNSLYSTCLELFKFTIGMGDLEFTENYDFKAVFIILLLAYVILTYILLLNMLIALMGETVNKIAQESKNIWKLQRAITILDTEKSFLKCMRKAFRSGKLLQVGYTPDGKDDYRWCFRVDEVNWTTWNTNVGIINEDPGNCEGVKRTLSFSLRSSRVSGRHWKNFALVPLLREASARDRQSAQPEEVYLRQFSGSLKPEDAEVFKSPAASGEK
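Cells expressing TRPV1 were dye-loaded with Fluo-8 and read kinetically: 10 s baseline, 3 min after compound (agonist portion), then 2 min after EC20 capsaicin (allosteric enhancer portion). Calcium-bound dye fluorescence at 480/520 nm.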
ClpP mod = qHTS Assay for Activators of ClpP. 340,000 compounds, 1.9% hits. ATP-dependent Clp protease proteolytic subunit (Bacillus subtilis (strain 168)), P80244. Potency, µM (titrated, usually from 57.5 µM), for the others: top-dose activity change, negative = active. purified B. subtilis ClpP, FRET peptide cleavage, 20 min; active = well fitted falling curve with a large enough effect; inconclusive = small, poorly fitted or top-dose-only effect; inactive = no such curve, though single readings can be large or run the other way; note: potency is the fitted concentration of half-maximal effect; the source files actives as falling curves though it sought activators and does not explain the sign; nearly all actives have a fitted effect of over 65% in size; many hits overshoot -100%
Target sequence (P80244 whole entry, looked up): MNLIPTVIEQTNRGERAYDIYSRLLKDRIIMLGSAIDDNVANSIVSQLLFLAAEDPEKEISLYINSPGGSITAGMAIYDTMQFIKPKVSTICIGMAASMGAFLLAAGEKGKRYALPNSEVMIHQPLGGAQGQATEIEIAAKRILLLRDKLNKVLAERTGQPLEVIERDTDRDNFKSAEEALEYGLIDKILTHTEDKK
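FRET quenching reversal measured ClpP activation: 10 microg/mL B. subtilis ClpP at pH 8 with the FRET-FV decapeptide, read at 430 nm after 320 nm excitation. The 20-min minus 0-min signal was scaled between DMSO/no-enzyme wells and ADEP (5.8 microM final).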
Sfp inh = Sfp phosphopantetheinyl transferase inhibition; Biochemical Sfp PPTase activity, qHTS; Potency, µM, for inactives: max response, negative = inhibition, most hits filed as inhibitors; 310,000 compounds, 3.5% hits; AID 1490; active = well fitted inhibition curve with a large enough effect; inconclusive = small, poorly fitted or top-dose-only effect, or another doubt; inactive = no such curve, though single readings can be large or run the other way;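 note: the enzyme is Sfp with the accession as filed and its product quenches rhodamine fluorescence; potency is the fitted concentration of half-maximal effect; 0% = enzyme reaction without inhibitor and -100% = no enzyme wells; top concentration of the series not given in the record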
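Fluorescence-quenching assay with 15 nM Sfp, 5 uM rhodamine-CoA and 12.5 uM BHQ-2-labelled ybbR peptide in pH 7.6 Hepes/MgCl2 buffer. Enzyme was pre-incubated with compound for 15 min at room temperature. Rate was taken from the 30-min fluorescence change (525/598 nm).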
gsp antagonist = antagonizes gsp, the McCune-Albright syndrome mutation. gsp-mutant cells, cAMP HTRF, 30 min; control for the full effect not named in the record. 340,000 compounds, 0.4% hits. AID 624288. Potency, µM (series often up to 76.9 µM), without a hit: at the top dose activity change, negative = inhibition, actives largely listed as inhibitors; active = falling curve of any shape with a large fitted effect; inconclusive = falling curve, mostly with a smaller effect; inactive = flat or rising curve; cell line not stated here;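 note: intracellular cAMP measured with PDE inhibitor Ro 20-1724 present during compound exposure; potency is the fitted concentration of half-maximal effect; % is set by controls: 0 for no effect and ±100 for the full control effect; nearly all actives have a fitted effect of over 65% in size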
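HTRF cAMP measurement after 30 min RT detection following 30 min, 37C compound treatment alongside […] (added as 300 uM solution) in G418-selected cells seeded at 2000/well and grown 16–24 h.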
CtBP-E1A inh = CtBP/E1A binding inhibition. activity change, % (test concentration not listed). 340,000 compounds, 0.49% hits. AlphaScreen GST-E1A/His-CtBP binding, 1536-well; stronger effect = lower value; control for the full effect not named in the record. AID 651724; in the data active means activity change below about -65%; inconclusive means about -30% to -65%; inactive means above about -30%; note: % is set by controls: 0 for no effect and ±100 for the full control effect
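Protein mix (5X: 125 nM each GST-E1A, His-CtBP) was incubated with pinned compound 2 h at 37 deg C in dark, in 50 mM Tris pH 8.0 buffer with 300 mM NaCl. Glutathione donor and nickel acceptor beads followed; AlphaScreen signal read after 1 h.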
Menin MLL FP FL = inhibitors of human menin-MLL interaction, wild-type MLL peptide; Fluorescence polarization, fluorescein-MLL peptide displacement from menin; 290,000 tested, under 10 active; FP activity change, % at 61.4 µM; AID 1766; inconclusive = falling polarisation curve, or a change in total fluorescence; inactive = total fluorescence flat and polarisation flat or rising; no compound was filed as active; the % refers to the polarisation; negative = inhibition;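 note: % of control where 0% means no effect; inhibitors lower the polarisation; unlabelled MLL peptide was the positive control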
gsp ag = gsp mutant agonism | gsp mutant cells, cAMP HTRF, 30 min; control for the full effect not named in the record | Potency, µM (top dose mostly 76.9 µM), without a hit: at the highest dose activation (cAMP increase), most hits filed as activators | 340,000 compounds, 0.13% hits; active = well fitted activation curve with a large enough effect; inconclusive = small, poorly fitted or top-dose-only effect, or another doubt; inactive = no such curve, though single readings can be large or run the other way; cell line not stated here;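 note: phosphodiesterase inhibitor Ro 20-1724 added with compounds to block cAMP breakdown; potency is the fitted concentration of half-maximal effect; nearly all actives have a fitted effect of over 60% in size; about a fifth of the inactives were tested at one dose only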
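Cells in DMEM/10% FBS with G418 were pretreated with compounds in DMSO plus […] (300 uM stock) for 30 min at 37C. cAMP was measured by HTRF (cAMP-d2 plus anti-cAMP antibody-K) after 30 min at room temperature.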
* hit, by the source's call; ? = inconclusive; . = no result given; [ ] = another dose, or the depositor's remark.

entry	Structure	ClpP mod	TRPV1 PAM	gsp antagonist	CtBP-E1A inh	Sfp inh	gsp ag	Menin MLL FP FL
1	COc1ccccc1NC(=S)NCc1ccc(S(N)(=O)=O)cc1	-1.3%	7	6%	-16	10%	-2%[15.4 µM]	1.9
2	N#Cc1c(C(F)(F)F)cc(-c2cccs2)nc1SC(C(=O)O)c1ccccc1 (stereo not given)	-13%	.	?	9	.	-14%	.
3	CCOC(=O)N(C)C[C@@H]1OCc2cn(nn2)CCCC(=O)N([C@@H](C)CO)C[C@H]1C	-1.2%	.	.	5	.	18%	.
4	Cc1cccc(N(C)c2cc(C)nc3nc(C)nn23)c1	-1.7%	?	2%	4	8%	?	4.4
5	O=S(=O)(NC1CCCCC1Nc1ccccc1)c1ccccc1 (stereo not given)	.	0	-1%	3	8%	-7%	-0.5
6	Cn1cccc1Cc1nnc(SCC(=O)N2CCCCCC2)n1-c1ccc(F)cc1	5.8%	26	-11%	-3	-14%	1%	0.2
7	O=C(C=Cc1ccccn1)c1ccccc1	.	.	14%	5	.	-17%	.
8	Cc1cc(C)cc(NC(=O)CSc2nnc(CN3CCOCC3)n2C)c1	-2.2%	-15	-5%	-10	-7%	20%	1.5
9	O=C(NCCCNCc1ccccc1)c1ccncc1	-0.2%	26	11%	1	7%	1%	3.6
10	CCCCOc1ccc(C(=O)NCC(=O)OCCCOC(=O)CNC(=O)c2ccc(OCCCC)cc2)cc1	-0.2%	.	.	5	.	-93%[inhibitor]	.
11	CCc1nc(Nc2ccncc2)c2oc3ccccc3c2n1	8.9µM*	3	0%	0	12%	-19%	2.5
12	COCCN(C(=O)Nc1ccccc1)c1ccccc1C	-1.5%	3	2%	6	16%	-3%	1.0
13	O=C1NC(=O)C(=Cc2ccccc2[N+](=O)[O-])S1	.	.	-21%	?	.	17%	.
14	CCc1ccc2[nH]c(=O)c(CN(CCN3CCOCC3)C(=O)Nc3ccccc3F)cc2c1	-12%	8	9%	0	5%	0%	0.3
15	CCCC(=O)C1=C(O)C(C(=O)OC)C(C)(C)CC1=Nc1cccc2ccccc12 (stereo not given)	-5.7%	20	-9%	-2	-18%	-4%	0.9
16	CCN(CC(=O)NC(C)C)C(=O)C(CCSC)NC(=O)c1cccc(C)c1 (stereo not given)	-1.4%	3	-8%	-10	12%	?	2.5
17	C[N+](C)(C)CC(O)CC(=O)O (stereo not given)	1.0%	-5	1%	5	17%	.	-0.9
18	C/C(=N/NC(=O)C(=O)N/N=C(/C)c1ccccc1)c1ccccc1	.	3	.	.	22%	.	-0.6
19	COc1ccc2oc(C(=O)NCc3ccccc3CN3CCCC3)c(C)c2c1	4.6%	2	1%	.	.	4%	.
20	CC(=O)Nc1sc2c(c1C#N)CC(C)(C)NC2(C)C	0.5%	-4	10%	0	19%	-49%[inhibitor]	0.7
21	CN(C)S(=O)(=O)c1cccc(NC(=O)/C=C/c2ccccc2[N+](=O)[O-])c1	.	-8	-8%	7	22%	38%[15.4 µM]	-6.5
22	Cc1cccc(N2CCN(C(=O)Cc3ccc(Br)cc3)CC2)c1C	0.4%	4	-13%	2	4%	?	4.2
23	O=S1(=O)c2ccc(Br)cc2N2CC[C@H](C2)N1Cc1ccc(Cl)cc1	-3.7%	.	2%	-19	.	.	.
24	CCCc1cc(=O)[nH]c(SCC(=O)N(CC(C)C)C2CCS(=O)(=O)C2)n1 (stereo not given)	-1.3%	-7	-5%	6	12%	-7%	3.0
25	CCOC(=O)c1c(C)[nH]c(C)c1S(=O)(=O)NCCCc1ccco1	0.5%	-5	-1%	-13	12%	-21%	2.2
26	CCn1c(=O)c(-[n+]2ccccc2)c(O)c2ccccc21	-1.2%	5	16%	5	13µM*	1%	0.9
27	CCC(=O)NC(Cc1ccccc1)c1ccc2c(c1)OCCCO2 (stereo not given)	22µM*	-7	1%	9	-2%	-16%	-0.5
28	O=c1[nH]c2cc3c(cc2cc1CN(CCc1ccccc1)Cc1nnnn1CC1CCCO1)OCO3 (stereo not given)	25µM*	3	-10%	-1	56µM*	-1%	?
29	Cc1ccccc1NC(=O)c1ccc(Cl)c(NC(=O)c2ccncc2)c1	-1.3%	-17	6%	2	13%	-57%	1.7
30	CC[C@]12c3[nH]c4cc(-c5ccco5)ccc4c3CCN1C(=O)[C@@H](CC(=O)NCc1ccco1)C[C@@H]2C(=O)N1CCN(C(=O)c2ccco2)CC1	-23%	.	-19%	-12	.	.	.
31	O=C(NCCCN1CCOCC1)c1ccc2c(c1)N(Cc1c(F)cccc1Cl)C(=O)c1ccccc1S2	2.0%	-5	-3%	.	-4%	-24%	.
32	CCOC(=O)c1[nH]c2ccc(Br)cc2c1NC(=O)CCN1CCCC(C)C1 (stereo not given)	.	-11	.	.	-14%	.	2.9
33	CC(C)CN1CCN(Cc2cccc3nccnc23)CC1CCO (stereo not given)	.	-2	13%	16	4%	-1%[15.4 µM]	1.0
34	O=C(CN1CCSC1=O)N1CCN(S(=O)(=O)c2ccc(F)cc2)CC1	-1.4%	0	10%	4	.	-4%	.
35	Cc1cc(C)c(C(=O)COC(=O)c2cc([N+](=O)[O-])ccc2NCCO)cc1C	2.7%	-2	-7%	0	-18%	13%	3.3
36	CCn1cc(C(=O)N2CCN(Cc3ccc4c(c3)OCO4)CC2)c2cc(OC)c(OC)cc2c1=O	-7.7%	8	1%	4	6%	-18%	-1.3
37	CCN1CCN(C(=O)c2ccc(Cn3c(=O)[nH]c4cc(OC)c(OC)cc4c3=O)cc2)CC1	16µM*	2	5%	-18	6%	?	0.3
38	COc1ccccc1NC(=O)Nc1ccnn1Cc1cccs1	-3.5%	13	-13%	-3	-10%	6%	-2.3
39	Cc1ccc(C2CC(c3ccccc3Cl)n3nc(N)nc3N2)cc1 (stereo not given)	-4.7%	.	4%	0	-4%	-35%[inhibitor]	-3.3
40	Cc1ccc(-n2c(-c3ccccc3)c[n+]3c2CCC3)cc1	-2.4%	2	-8%	5	9%	-7%	-5.7
41	CCOC(=O)C(CC)/C(C)=N/NC(=O)c1ccccc1[N+](=O)[O-] (stereo not given)	-1.6%	7	11%	-1	-5%	7%	4.6
42	CCOc1ccc(CCNC(=O)c2cccs2)cc1OCC	.	-19	2%	3	19%	-55%	-1.7
43	O=C(c1ccco1)N(Cc1ccco1)Cc1cc2ccccc2[nH]c1=O	.	2	-3%	-6	-5%	?	-3.8
44	CCN(CC(=O)Nc1ccc(NC(C)=O)cc1)C(=O)c1ccccc1CCc1ccccc1	0.3%	-15	-5%	1	.	2%	.
45	Cc1oc(-c2ccc(Cl)cc2)nc1CN1CCC(C(=O)N2CCc3ccccc3C2)CC1	-3.6%	-15	0%	-24	17%	9%	-1.4
46	COc1ccc(-c2oc3ccc(N4CCOCC4)cc3c2C#CCO)cc1	3.7%	.	?	4	.	.	.
47	CC(C)CC1C(=O)N(Cc2cn(CCC3OCCCO3)nn2)CCS(=O)(=O)N1Cc1ccc(-c2ccncc2)cc1 (stereo not given)	-7.8%	.	.	20	.	-68%[inhibitor]	.
48	O=C(NNc1nc2c(F)cc(F)cc2s1)C1=COCCO1	.	3	-3%	4	-1%	0%	-7.5
49	CCc1ccc(NC(=O)C(=O)c2ccccc2NC(C)=O)cc1	-3.3%	3	-10%	-4	.	11%	.
50	COc1ccccc1C(=O)NC1CCN(C(=S)NCCc2ccccc2)CC1	.	-29	-13%	0	9%	0%[15.4 µM]	0.7

The list goes on.
entry	Structure	ClpP mod	TRPV1 PAM	gsp antagonist	CtBP-E1A inh	Sfp inh	gsp ag	Menin MLL FP FL
51	CC1(C)OC2CC3C4CC=C5CC(O)CCC5(C)C4CCC3(C)C2(C(=O)CO)O1 (stereo not given)	.	.	-2%	3	.	8%	.
52	Cc1cc(C(=O)N/N=C/c2c(C)nn(-c3ccccc3)c2Cl)n[nH]1	.	6	-2%	-8	9%	6%[15.4 µM]	0.3
53	CC(=O)Nc1ccc(NC(=O)CSc2nccn2Cc2ccccc2)cc1	5.0%	-6	-21%	0	-1%	-31%	4.0
54	Cc1cccn2c(=O)c3cc(C(N)=S)c(=N)n(CCCOC(C)C)c3nc12	16µM*	?	-4%	-16	?	?	5.7
55	CC(C)[C@@H](C(=O)N1CCN(C(=O)OC(C)(C)C)CC1)n1cc(CCO)nn1	-1.6%	1	6%	2	15%	10%	-2.2
56	CCCCn1c(N)c(N(CCC(C)C)C(=O)C2CC(=O)N(c3ccc4c(c3)OCCO4)C2)c(=O)[nH]c1=O (stereo not given)	.	11	-5%	10	11%	-2%[15.4 µM]	.
57	COC(=O)C(CC(C)C)NC(=O)c1ccc([N+](=O)[O-])c(C)c1 (stereo not given)	0.0%	-20	-5%	6	-3%	-17%	1.6
58	CCOC(=O)c1ccc(NC(=O)CN2CCN(C(=O)c3ccco3)CC2)cc1	-3.0%	3	0%	-1	15%	-27%	.
59	COc1ccc(OC)c(S(=O)(=O)N2CCCC(C(=O)N3CCOCC3)C2)c1 (stereo not given)	.	4	-1%	2	0%	23%[15.4 µM]	-2.0
60	Cn1cc(S(=O)(=O)N2CCCC2)cc1C(=O)O	0.0%	.	11%	.	.	7%	.
61	Cc1cccc(Nc2ccc(NCc3ccccc3)nn2)c1	-3.3%	9	-12%	-25	3%	-36%[inhibitor]	0.3
62	Cc1cc(C)c2nc(N3CCN(C(=O)c4cccs4)CC3)sc2c1	.	-7	-2%	-21	.	-14%[15.4 µM]	.
63	CC1CC(O)(CC(O)(c2ccccc2)c2ccccc2)C(C)CN1C (stereo not given)	-0.3%	2	9%	1	6%	15%	-0.3
64	O=C(Cn1cc(S(=O)(=O)N2CCN(c3ccccc3F)CC2)c2ccccc2c1=O)NCCCN1CCCCCC1	.	-2	2%	-4	?	29%	-0.8

From PubChem BioAssay
